WNV protease inh: inhibitors of WNV NS2B-NS3 protease, primary screen, biochemical, fluorogenic substrate | Genome polyprotein (West Nile virus), P06935 | fluorogenic substrate Ex360/Em465; stronger effect = lower value | z-score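 (tested at a level between 10 and 100 µM)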 | 65,000 tested, 0.18% active;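 active means z-score at -3 or under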;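 further: score is relative to mean and spread of the compound wells of a plate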
Target sequence (P06935 1371-1501 limits assumed): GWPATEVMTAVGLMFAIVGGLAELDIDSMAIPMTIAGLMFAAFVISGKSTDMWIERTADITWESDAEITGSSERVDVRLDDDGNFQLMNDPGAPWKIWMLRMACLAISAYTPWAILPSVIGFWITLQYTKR
Target sequence (P06935 1502-1679 limits assumed): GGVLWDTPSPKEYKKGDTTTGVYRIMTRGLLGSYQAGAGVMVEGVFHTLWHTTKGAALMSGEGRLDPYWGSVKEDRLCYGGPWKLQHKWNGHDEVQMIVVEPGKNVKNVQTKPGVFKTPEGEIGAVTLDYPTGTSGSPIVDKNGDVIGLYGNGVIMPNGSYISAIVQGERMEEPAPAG
Hsc70: Hsc70 inhibitors, probe displacement, primary screen, biochemical, fluorescence polarization (AID 568); Hsc70 fluorescence polarization, probe displacement; higher % means a stronger effect; strong numbers were not always called active; displacement, % at 20 µM; hits with a dose series show IC50 in µM; 83,000 tested, under 10 active;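 active means displacement above 50% without optical interference and an IC50 on retest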;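 further: ATPase domain with a fluorescein-tagged ATP probe; 0% = vehicle and 100% = excess ADP; read after one hour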
MT1-MMP reporter: inhibitors of MT1-MMP promoter transcription, cell-based, luciferase reporter, luminescence (AID 618); 87,000 tested, 0.62% active; MT1-MMP promoter luciferase reporter cells, luminescence; calls from a first round at 10 µM; hits with a dose series show EC50 in µM;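 active means over half of the reporter light lost at 10 µM or EC50 under 50 µM; inactive means the rest and hits that failed the dose series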;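 further: actives suppress MT1-MMP promoter-driven transcription so potencies describe inhibitors; HT1080 fibrosarcoma cells; overnight exposure; toxic or luciferase-blocking compounds were not removed from the actives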
Numbers without * were called inactive; i = inactive; x = no result given; + = active, no number.

SMILES,WNV protease inh,Hsc70,MT1-MMP reporter
CCOC(=O)c1cnc(SCC(=O)Nc2ccc(N3CCOCC3)cc2)nc1N,x,6.0%,i
CCOC(=O)c1[nH]c(C)c(C(=O)NCCN2CCOCC2)c1C,0.49,1.8%,i
Cc1sc2nc(C)n(/N=C/c3ccccc3)c(=O)c2c1C,x,5.2%,i
COc1cc(C)c(Cl)c(C)c1S(=O)(=O)NCc1cccnc1,x,2.1%,i
COCCN(CCOC)S(=O)(=O)c1ccc(OC)cc1,0.57,2.2%,i
COc1ccc(-n2c(Cc3cccn3C)nnc2SCC(=O)Nc2ccc3c(c2)OCO3)cc1,0.25,-1.8%,i
CC(OC(=O)c1ccco1)C(=O)NCc1cccs1 (stereo unspecified),0.21,-1.4%,i
N#Cc1c(N)c(C#N)c(-c2ccc(O)cc2)c2c1CCCC2,0.15,-0.8%,i
O=c1c2c3c(sc2n2cnnc2n1-c1ccccc1)N(Cc1ccccc1)CCC3,0.86,17.1%,i
COC(=O)c1ccccc1NC(=O)Cn1nc(C(F)(F)F)c2c1CCC2,0.79,-4.8%,i
Cc1noc(C)c1CSc1nnc(-c2c[nH]c3ccccc23)n1-c1ccc(Cl)cc1,0.0064,3.5%,i
CC(C)Cn1c(N)c(C(=O)CSc2nnnn2C)c(=O)n(C)c1=O,x,-0.3%,i
CCOc1ccc(/C(O)=C2/C(=O)C(=O)N(CCOCCO)C2c2cccnc2)cc1 (stereo unspecified),-2.23,-5.1%,i
CCOC(=O)C1CCN(C(=O)Nc2ccc3nc(C)c(C)nc3c2)CC1,2.46,1.9%,i
O=C(NCCCN1CCOCC1)c1c(O)c2cc(Br)cc(Br)c2[nH]c1=O,0.55,7.4%,i

Additional structures:
SMILES,WNV protease inh,Hsc70,MT1-MMP reporter
C=CCn1c(-c2cccs2)nc2nc3ccccc3nc21,2.98,-3.0%,i
Cc1nn2cc(-c3ccc(Cl)cc3)nc2s1,0.95,6.7%,+
CC(=O)N(c1ccc(C(C)C)cc1)C1C=CS(=O)(=O)C1 (stereo unspecified),0.75,5.4%,i
Cc1ccc(CS(=O)(=O)CCC(=O)NCCN2CCCCC2C)cc1 (stereo unspecified),-1.51,-0.1%,i
CCOC(=O)c1sc(-c2ccccc2)cc1N,-1.22,-0.5%,i
Cc1cc(C)n2cc(CSc3ncccc3C(=O)O)nc2n1,-2.36,-2.7%,i
COc1ccc(OC)c(NC(=O)Cn2c(CCC(=O)O)ccc2-c2cccs2)c1,-0.52,0.4%,i
CCC(Sc1nc(C)cc(=O)[nH]1)C(=O)Nc1nc(-c2ccccc2)cs1 (stereo unspecified),x,-1.8%,i
CC(=O)Nc1nonc1-c1nc2ccccc2n1CC1CC1,0.24,-2.6%,i
OC[C@H]1O[C@@H](n2cnc3c(Nc4ccccc4)ncnc32)[C@H](O)[C@@H]1O,-0.42,2.0%,i
CC(OC(=O)c1cc2sccc2n1C)C(=O)NCc1ccco1 (stereo unspecified),-0.36,1.9%,i
CCOC(=O)C1=C(C)Nc2nc(C)nn2C1c1ccc(C)cc1 (stereo unspecified),-1.55,-5.7%,i
CCn1c(SCC(=O)Nc2nc(C)c(C)s2)nc2cccnc21,x,-2.2%,i
O=S(=O)(Nc1ccccc1N1CCCCC1)c1ccc(Cl)s1,x,3.2%,i
Cc1[nH]nc2c1C(c1cccc(O)c1)C1=C(CC(C)(C)CC1=O)N2 (stereo unspecified),-0.46,2.8%,i

(continued)
SMILES,WNV protease inh,Hsc70,MT1-MMP reporter
O=C(CCC(=O)Nc1nnc(C2CCCCC2)s1)NCC1CCCO1 (stereo unspecified),x,-1.3%,i
c1ccc(-c2csc(NNC3=NCCCCC3)n2)cc1,x,1.6%,i
O=C(NCCc1cccc(Cl)c1)c1cccnc1,-0.07,-0.1%,i
CCOC(=O)c1[nH]c(C)c(C(=O)NC2CCCCC2)c1C,-0.36,-3.7%,i
CCOc1nc(NCCO)nc(NCCC2=CCCCC2)n1,x,-1.5%,i
COc1ccc(NC(=O)Cn2nc3n(c2=S)CCC3)cc1,1.4,-0.7%,i
CC(C)c1cc(N2CCN(C(=O)c3ccco3)CC2)n2c(nc3ccccc32)c1C#N,-0.9,2.1%,i
Cc1cccc(NC(=O)c2ccccc2OCC(=O)N2CCOCC2)c1C,0.75,7.4%,i
O=C(Nc1ccccc1C(F)(F)F)N1CCN(c2ccc3nncn3n2)CC1,-0.06,-2.8%,i
Cc1ccc(C(=O)Nc2ccncc2)o1,1.56,-4.6%,i
CC(C)(C)C(=O)c1no[n+]([O-])c1/C(=N/O)C(C)(C)C,-0.17,-0.8%,i
Cc1ccc(C)c(NC(=O)c2nnn(Cc3ccccc3C)c2N)c1,1.07,2.7%,i
CC(C)(C)NC(=O)CN(C(=O)CS(=O)CC(=O)Nc1ccc(F)cc1)c1ccc(F)c(Cl)c1 (stereo unspecified),0.25,4.1%,i
Cc1ccc(C(=O)c2cn[nH]c2-c2cc(Cl)ccc2O)cc1,-1.97,-1.8%,i
Cc1cc(C)n(C(=O)c2cc3c(s2)CCCC3)n1,x,0.8%,i

Next section
SMILES,WNV protease inh,Hsc70,MT1-MMP reporter
COC(=O)Cc1cc(=O)[nH]c(/N=C(\N)Nc2ccccc2C)n1,x,-1.6%,i
O=C(N1CCCC1)C12CCC3CC(CC(C3)C1)C2,x,-7.2%,i
Cc1cnn(C(=S)NCC2CCCO2)c1 (stereo unspecified),1.09,8.8%,i
O=C(N1CCCCC1)N1CCCN(C(=O)N2CCCCC2)CC1,0.12,-7.2%,i
O=C(CN1CCCN(S(=O)(=O)c2ccc(Br)cc2)CC1)Nc1ccc2c(c1)OCO2,-0.94,-1.1%,i
CCOC(=O)c1cc(C)n(Cc2cccc(OC)c2OC)c1C,0.43,-3.5%,i
N#Cc1nc(-c2cccc3ccccc23)oc1NCCN1CCCCC1,x,4.4%,i
COc1ccccc1NC(=O)N(Cc1ccccc1)C1=NCC(C)S1 (stereo unspecified),-0.98,-6.0%,i
COC(=O)c1sccc1NS(=O)(=O)c1ccc(OC)cc1,0.75,0.0%,i
CCOC(=O)C(CC)n1cnc2c(oc3ccccc32)c1=O (stereo unspecified),0.98,-1.3%,i
CNC(=O)Cn1nc(C)c2ccccc2c1=O,-0.35,-1.9%,i
Cc1ccc(-c2nnc(SCc3ccc(C#N)cc3)n2Cc2ccco2)cc1,x,-17.3%,i
NS(=O)(=O)c1ccc(CCNC(=O)C2CCCN(S(=O)(=O)c3cccnc3)C2)cc1 (stereo unspecified),0.56,-2.4%,i
Cc1nnc(Sc2nc3c(c(=O)n(C)c(=O)n3C)n2Cc2ccccc2Cl)s1,1.64,-0.2%,i
NCC[C@H](O)C(=O)N[C@@H]1C[C@H](N)[C@@H](O[C@H]2O[C@H](CN)[C@@H](O)[C@H](O)[C@H]2O)[C@H](O)[C@H]1O[C@H]1O[C@H](CO)[C@@H](O)[C@H](N)[C@H]1O,1.1,-1.9%,i

The listing continues:
SMILES,WNV protease inh,Hsc70,MT1-MMP reporter
Cc1ccnc(NS(=O)(=O)c2ccc(CC(C)C)cc2)c1,x,-4.2%,i
O=C(NCCc1ccc(Cl)cc1)C1CCC(=O)N1C1CCCC1 (stereo unspecified),1.11,3.1%,i
Cc1ccc(CSc2nnc(-c3cccnc3)o2)cc1,x,-3.1%,i
O=C(NC1CC1)C1CCCN(C(=O)Nc2ccc(F)cc2)C1 (stereo unspecified),-0.89,-0.6%,i
Cc1cc(NC(=O)CCCC(=O)N(c2ccccc2)C(C(=O)NC2CCCCC2)c2cccs2)no1 (stereo unspecified),x,1.7%,i
O=C1NCC(c2ccccc2)C1C(=O)N/N=C\c1ccc(-c2cccc(Cl)c2Cl)o1 (stereo unspecified),x,-2.6%,i
CC(C)(C)NC(=O)c1ccc(COc2ccccc2Br)o1,-0.00834,3.7%,i
O=S(=O)(c1cccc2nsnc12)N1CCN(c2ncccn2)CC1,-0.49,-0.7%,i
Oc1ccccc1CNc1ccc(Br)cn1,x,-1.3%,i
O=C(Cc1cn2ccsc2n1)Nc1ccccc1Oc1ccccc1,0.34,-2.9%,i
CCc1ccccc1NC(=O)C(CC)Sc1nc2cc3c(cc2c(=O)n1Cc1ccco1)OCO3 (stereo unspecified),0.03,-1.1%,i
COC(=O)C(C)Sc1snnc1-c1ccccc1 (stereo unspecified),x,-1.4%,i
Cn1cnc2cc(NC(=O)c3ccc(Cl)cc3)ccc21,-0.65,-3.2%,i
CCC12CCCN3CCC4(C(=C(C(=O)OC)C1)Nc1ccccc14)C32 (stereo unspecified),-0.81,-5.1%,i
O=C(Cn1nc(-c2ccccc2)c2ccccc2c1=O)NCCN1CCOCC1,-0.33,4.3%,i

Compound profiles, from the list above:
Cc1cc(C)n2cc(CSc3ncccc3C(=O)O)nc2n1 as listed: WNV protease inh: -2.36; Hsc70: -2.7%; MT1-MMP reporter: i
O=C(Cc1cn2ccsc2n1)Nc1ccccc1Oc1ccccc1 as listed: WNV protease inh: 0.34; Hsc70: -2.9%; MT1-MMP reporter: i

Three of the compounds above, with values under each structure.
The line under a structure holds: WNV protease inh	Hsc70	MT1-MMP reporter
O=C(NCCCN1CCOCC1)c1c(O)c2cc(Br)cc(Br)c2[nH]c1=O
→ 0.55	7.4%	i
O=C(Nc1ccccc1C(F)(F)F)N1CCN(c2ccc3nncn3n2)CC1
→ -0.06	-2.8%	i
CCOC(=O)C(CC)n1cnc2c(oc3ccccc32)c1=O (stereo unspecified)
→ 0.98	-1.3%	i

Following part:
SMILES,WNV protease inh,Hsc70,MT1-MMP reporter
CCOc1cc2c(C#N)c(N3CCCCC3)nc(N)c2c(N)n1,x,-7.1%,i
O=C(CCNC(=O)Cn1ccc2ccccc2c1=O)NCCN1CCN(c2cccc(Cl)c2)CC1,-0.89,0.8%,i
CCCCCCC1CCC(c2nc(-c3ccncc3)no2)CC1 (stereo unspecified),x,-0.7%,i
CCn1c(SCC(=O)NCc2ccccc2)nnc1-c1ccccc1O,0.81,-1.5%,i
O=C1c2ccccc2C(=O)N1CCCc1nc2ccccc2c(=O)n1Cc1ccco1,-0.29,5.0%,i
COc1ccc(Oc2cc(C)c3ccccc3n2)cc1,x,-9.2%,i
CCC(C)(C)n1nnnc1C(c1cc2ccc(OC)cc2[nH]c1=O)N1CCc2ccccc21 (stereo unspecified),-0.76,-0.7%,i
Cn1c(Cc2cccs2)nnc1SCC(=O)N1CCCc2ccccc21,x,-0.2%,i
COc1ccc(NC2CS(=O)(=O)CC2NCc2ccccc2)cc1 (stereo unspecified),x,-5.3%,i
CC(C)(C)n1nc2c(c1NC(=O)c1ccccc1F)CS(=O)C2 (stereo unspecified),0.99,-7.9%,i
COc1ccccc1N1CCN(C(=O)C2CCN(S(=O)(=O)c3ccc(F)cc3)CC2)CC1,-0.08,4.2%,i
O=C(CN1C(=O)CSc2ccccc21)NC1CCCC1,-0.12,-0.5%,i
CC1(C)NC(=O)N(CC(O)CN2CCCC2)C1=O (stereo unspecified),-0.74,7.1%,i
CC(NC(=O)CSc1nc2c(cc1C#N)CN(C)CC2)c1ccccc1 (stereo unspecified),0.18,-7.6%,i
O=C1c2ccccc2N2C(=O)c3ccccc3C2N1O (stereo unspecified),0.49,-3.3%,i

Other records follow:
SMILES,WNV protease inh,Hsc70,MT1-MMP reporter
Cc1cccc(Cn2c(N(C)Cc3ccccc3)nc3c2c(=O)[nH]c(=O)n3C)c1,-0.63,2.8%,i
CCOC(=O)CSc1nc(C)c(C(C)=O)cc1C#N,-0.55,1.0%,i
Nc1ccc2nn(-c3cccc4ccccc34)nc2c1,0.92,-3.3%,i
COc1ccc(-c2ccc(NCCC3=CCCCC3)nn2)cc1OC,-0.1,7.3%,i
Cc1c(Cl)ccc2c1NC(=O)[C@]21N[C@@H](CCC(N)=O)[C@H]2C(=O)N(c3ccc(F)cc3)C(=O)[C@H]21,0.18,-3.0%,i
Cc1ccc(C(=O)N2CCN(C(=O)CN3CCOCC3)C2)cc1,-0.32,-3.9%,i
CCOC(=O)c1snc(C(=O)NC2CCCCC2)c1N,-1.12,-7.2%,i
CN(C)CCCN1C(=O)C(=O)/C(=C(/O)c2ccc3c(c2)OCO3)C1c1cccnc1 (stereo unspecified),1.95,-3.2%,i
Cc1cc(SCc2ccccc2)nc(=O)[nH]1,1.7,4.0%,i
N#CC1=C2SCC(O)(c3ccccc3)N2C(=O)CC1c1ccccc1F (stereo unspecified),x,-7.7%,i
CCc1ccc(NC(=O)CSC2=C(C#N)C(c3ccco3)C3=C(CCCC3=O)N2)cc1 (stereo unspecified),-0.25,-2.0%,i
CCOc1ccccc1C(=O)N(Cc1cccs1)C1CCS(=O)(=O)C1 (stereo unspecified),-0.45,-1.6%,i
CCCN1CCN(CCCNC(=O)Cn2nc(-c3ccc(C)cc3)ccc2=O)CC1,-1.48,9.2%,i
Cn1c(=O)c2c(nc(NCCO)n2CCc2ccccc2)n(C)c1=O,0.72,3.2%,i
Cc1oc(-c2ccccc2F)nc1CN1CCC(C(=O)NCc2cccnc2)CC1,0.45,1.8%,i

From PubChem
